# StopGo reporter: lowers the luciferase signal of an FMDV 2A StopGo reporter; Potency, µM (top dose mostly 57.9 µM), for the others: at the top dose signal change, negative = less light; human cells with a luciferase reporter of 2A StopGo recoding; control for the full effect not named in the record; hit rate 1.2% among 410,000; active = well fitted falling curve with a large enough effect; inconclusive = small, poorly fitted or top-dose-only effect; inactive = no such curve, though single readings can be large or run the other way; tested in HEK293T cells; note: nearly all actives have a fitted effect of over 45% in size; luciferase light after 4 h
# RE007 growth inh: less growth of the S. pombe RE007 Vpr strain; Potency, µM (highest dose often 92.2 µM), for inactives: top-dose activity change, negative = less growth; S. pombe RE007 Vpr strain, BacTiter-Glo ATP luminescence, 24 h; control for the full effect not named in the record; hit rate 0.21% among 360,000; active = well fitted falling curve with a large enough effect; inconclusive = small, poorly fitted or top-dose-only effect; inactive = no such curve, though single readings can be large or run the other way;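 note: nearly all actives have a fitted effect of over 50% in size; the assay follows cell death caused by Vpr and the record does not say whether a fall means rescue or toxicity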
#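 Fission yeast strain RE007, carrying one chromosomally integrated HIV-1 vpr copy, was seeded at OD 0.01 in PMG+AL medium with 23 nL pinned compound. After 24 h at 30 °C and 99% humidity, viability was read by BacTiter-Glo luminescence.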
# An asterisk follows results filed as active; ? = inconclusive; [ ] = another dose, or the depositor's remark. % is set by controls: 0 for no effect and ±100 for the full control effect; potency is the fitted concentration of half-maximal effect.
SMILES,StopGo reporter,RE007 growth inh
CCCCNC(=O)C1(C)CCCCN1C(=O)c1cc(C)n(C(C)(C)C)n1 (stereo not given),-5%,8%
Clc1ccccc1CNCCc1c[nH]c2ccccc12,10%,-21%
COc1ccccc1NC(=O)Nc1nc(C(N)Cc2ccccc2)cs1 (stereo not given),-26%,3%
CC(C)(C)C(c1nc2ccccc2[nH]1)n1c(-c2cc(Cl)cc(Cl)c2)nc2ccccc21 (stereo not given),-29%,4%
Cn1nnnc1NN=Cc1ccccc1,-10%,-11%
CC1(C(=O)Nc2ccc(Cl)cc2)Cc2c(-c3ccc(C(N)=O)cc3)ccnc2O1 (stereo not given),-11%,-2%[18.4 µM]
CCN1CCCC1CNC(=O)c1ccc2c(c1)NC(=O)/C(=C\c1ccccc1F)S2 (stereo not given),?,17%
CCN(CC)C(=O)c1csc([C@H]2C[C@H](O)[C@@H](CO)O2)n1,3%,2%[18.4 µM]
CCCCn1nnnc1C(C1CC1)N1CCN(C/C=C/c2ccccc2)CC1 (stereo not given),-4%,2%
CCC/C=C/c1ccc(CN2C(CC(C)C)C(=O)N(Cc3cn(Cc4ccco4)nn3)CCS2(=O)=O)cc1 (stereo not given),?,-12%
CC(C)=CCCC(C)c1cc(C(=O)NCCc2ccc(O)cc2)c(N)s1 (stereo not given),-12%,2%
O=C(NCc1cccs1)c1ccc(-c2ccc(F)c(F)c2)c2ccoc12,31%[activator],-3%[18.4 µM]
CCC(C)C(NC(=O)C(Cc1ccc(O)cc1)NC(=O)OCc1ccccc1)C(=O)OC (stereo not given),-16%,-4%[18.4 µM]
CCNC(=O)C1(C)CCN(Cc2noc(-c3c(C)noc3C)n2)C1 (stereo not given),-11%,-6%
COC(=O)C1=C(c2cc3ccccc3o2)C[C@@H]2CC[C@H]1N2C(=O)N1CCOCC1,-20%,26%
CCc1ccc(N(CC(=O)N2CCCC2)S(C)(=O)=O)cc1,-2%,15%
CC(C)(C)OC(=O)N1CCC(C(=O)Nc2ccc(C(=O)N3CCCCC3)cc2)CC1,-4%,-9%
Cc1ccc2c(c1)sc1nncn12,16%,2%
CCOC(=O)CCCCCC(=O)Nc1ccc2c(c1)C(=O)N([C@@H](C)CO)C[C@@H](C)[C@H](CN(C)C(=O)c1ccncc1)OCCCC[C@H](C)O2,-6%,19%
O=[N+]([O-])c1ccc(COc2ccc(CN3CCCC3)cc2)cc1,6%,-18%
CC1(CN2CCCC2)CCC(NC(=O)C(c2ccccc2)c2ccccc2)C(C)(C)O1 (stereo not given),-16%,7%
Cc1cc(=O)[nH]c(NC(=O)Cc2ccccc2)n1,5%,11%
CCOc1cc(OCC)cc(C(=O)N2CCC[C@@H]2C(=O)N2CCC[C@H]2C(=O)NCc2ccncc2)c1,-29%,-6%
Cn1c(NCc2ccccc2F)nc2cc(-c3ccccc3)sc2c1=O,-23%,1%
ON=C1CCC2CCCCC2C1 (stereo not given),0%,-2%
Cc1ccc(S(=O)(=O)N2C[C@H]3N(C(=O)OC(C)C)N(C(=O)OC(C)C)C[C@H](OC(=O)NCC4CCCCC4)[C@@]3(O)C2)cc1,0%,13%
CCOC(=O)c1ccc(NC(=S)P(=O)(c2ccccc2)c2ccccc2)cc1,-23%,2%
COc1cccc2c(O)c(-c3ccccc3)c(=O)[nH]c12,8%,2%
CCCS(=O)(=O)NC(=O)C1(C)CCN(C(=O)Cc2ccc(F)cc2)C1 (stereo not given),3%,3%
CCOC(=O)c1cccc(C2=C(CNC(C)=O)[C@H]3CC[C@@H](C2)N3Cc2ccccc2)c1,2%,-13%
CCCCNC(=O)C1C(c2ccccc2)=Nc2ccccc2N1C(=O)c1ccc(C(F)(F)F)cc1 (stereo not given),1%,-6%
CC1=C(C(=O)N(C)C)CC(CC(=O)NC2CCCCC2)C(=O)N1Cc1ccc(C(C)(C)C)cc1 (stereo not given),-12%,7%
COCC(=O)N(C)[C@H]1C[C@H]2c3cc(Oc4ccccc4C)ccc3CCN2C(=O)[C@H]1[C@H](C)O,-18%,-18%
Cc1sc(N=Nc2ccc(N(C)C)cc2)[n+]([O-])c1C,-25%,-25%
CC(C)(C)c1ccc(S(=O)(=O)NC(=O)C2(C)CCN2C(=O)CC2CCCC2)cc1 (stereo not given),-8%,12%
CN(C)CCCNC(=O)c1cccc(-c2ccc3nccn3c2)c1,-9%,-20%[18.4 µM]
C=CCN(CC=C)Cc1cc(=O)oc2cc(OC)ccc12,7%,-6%
CCN(CC)CCC(=O)N1c2ccccc2Sc2ccc(Cl)cc21,-20%,-12%[18.4 µM]
O=C(c1ccoc1)N1CCN(c2cc(-c3ccncc3)nc3cc(-c4cccc(Cl)c4)nn23)CC1,?,-3%
COc1ccc(NC(=O)Nc2nc(C(N)C3CCCCC3)cs2)cc1 (stereo not given),0%,-1%
COc1ccc(OC(=O)N(C)C[C@H]2OCc3cnnn3CCCC(=O)N([C@H](C)CO)C[C@H]2C)cc1,-22%,-13%
CC(C)C[C@@H](CN1CCCC1CN1C(=S)NC[C@@H]1Cc1ccccc1)N1C[C@H](Cc2ccccc2)N(CC2CCCCCC2)C1=S (stereo not given in full),-13%,-6%
CC(=O)c1cccc(-c2ccnc3c2CC(C(=O)Nc2ccc(C(C)C)cc2)O3)c1 (stereo not given),-14%,-24%[18.4 µM]
C=C1CCN([C@@H](CC(C)C)C(=O)NCc2ccco2)S(=O)(=O)c2ccccc21,-6%,-5%
O=C(O)CC1(C(=O)O)CC2C=CC1C2 (stereo not given),-3%,13%
CCCCCCN1C[C@@H](n2cc(C3CC3)nn2)[C@H](O)C[C@@H]1c1ccc(OC)cc1,?,0%
CCOC(=O)[C@]12Cc3c(cc(OC)c(OC)c3OC)[C@H]1N(C1CCCCC1)C(=O)c1cc(OC)ccc12,13µM*,-26%
NC1=NC[C@@H](Cc2ccc(O)cc2)N1CCC12CC3CC(CC(C3)C1)C2,-23%,-18%
CC(Oc1ccc(F)cc1)C(=O)Nc1cccc(S(=O)(=O)N(C)c2ccccc2)c1 (stereo not given),-24%,-10%
C[C@@H]1CN([C@@H](C)CO)C(=O)CCCn2nncc2CO[C@H]1CN(C)S(=O)(=O)c1cn(C)cn1,-10%,-17%
CC(C)(C)S(=O)(=O)N1Cc2cc(CO)cc(CCO)c2[C@H]1CCO,-21%,0%
CC12CCC(CC1O)C2C(=O)O (stereo not given),-7%,5%
CC(C)NC(=O)C1Cc2c(-c3ccc4c(c3)OCO4)ccnc2O1 (stereo not given),-11%,1%
COc1cc(Nc2ccn3nccc3n2)cc(OC)c1OC,-8%,9%
COC(=O)C1=CN(c2ccc(OC)cc2)C(N)=C(C#N)C1c1ccc(OC)cc1 (stereo not given),-8%,-7%
COc1cccc(-c2cc(NC(C)=O)c3ncc(-c4cccc(C(C)=O)c4)n3c2)c1,-17%,-15%
Cc1ccc(C(=O)N2CCC3CC2c2cc(-c4ccc5c(c4)OCO5)ccc23)cc1 (stereo not given),-4%,5%
COc1ccccc1-c1csc(C(C)(O)c2ccccc2)n1 (stereo not given),-21%,0%
CCNC(=O)C1CCCN(C(=O)c2cccc(OC(F)(F)F)c2)CC1 (stereo not given),-13%,6%
CCOc1cc2c(cc1OCC)C(c1ccc(F)cc1)NCC2 (stereo not given),-11%,16%

# The list continues.
SMILES,StopGo reporter,RE007 growth inh
Cc1ccc(OCCC(=O)OCC(=O)NC2CCCCC2)cc1,-4%,-23%
CCCCCCCCNS(=O)(=O)CCNC1CC1,-19%,-21%
C[C@@H]1CN[C@H](CCO)/C1=C\c1ccccc1,-7%,-20%
CC(=O)Oc1ccc(-c2cc3c(OC(C)=O)cc(OC(C)=O)cc3oc2=O)cc1,23%,-4%
COc1ccc(N2CC(C(=O)Nc3nnc(SCC(=O)Nc4ccc(NC(C)=O)cc4)s3)CC2=O)cc1 (stereo not given),-10%,16%
CCCCCCn1cc(CN2CC(N(C)CCC)CS2(=O)=O)nn1 (stereo not given),-10%,2%
CCCC(=O)N1CCC1(C)C(=O)Nc1ccc2scnc2c1 (stereo not given),1%,-12%
COc1cccc(S(=O)(=O)N(C)C[C@H]2OCc3cnnn3CCCC(=O)N([C@@H](C)CO)C[C@@H]2C)c1,-24%,6%
O=C1NCN(c2ccccc2)C12CCN(C(c1cccc3ccccc13)c1nnnn1C1CCCC1)CC2 (stereo not given),-4%,-2%
CCCCCCN1C[C@H](n2cc(COC(=O)c3ccccc3)nn2)[C@@H](O)C[C@@H]1c1ccc(OC)cc1,-18%,-4%
COc1cc(-c2coc3c(C(=O)NCc4ccc(C(F)(F)F)cc4)cccc23)ccc1O,-15%,9%
C=CCNc1ncnc2c1ncn2[C@H]1CN(Cc2cccc3ccccc23)C[C@@H](CO)O1,-19%,2%
CCOc1ccc(NC(=O)COc2cccc3cccnc23)cc1S(=O)(=O)N1CCCC1,-10%,2%
CCNC(=O)C1(C)CCCN(C(=O)c2nc(C)oc2C)C1 (stereo not given),-18%,50%
Cc1ccc(S(=O)(=O)NCC(=O)NCC(=O)NCCc2ccc(Cl)cc2)cc1C,-13%,-14%

# For reference, part of the list above.
SMILES,StopGo reporter,RE007 growth inh
CCNC(=O)C1CCCN(C(=O)c2cccc(OC(F)(F)F)c2)CC1 (stereo not given),-13%,6%
CCOc1cc2c(cc1OCC)C(c1ccc(F)cc1)NCC2 (stereo not given),-11%,16%
Cc1ccc(OCCC(=O)OCC(=O)NC2CCCCC2)cc1,-4%,-23%
CCCCCCCCNS(=O)(=O)CCNC1CC1,-19%,-21%
C[C@@H]1CN[C@H](CCO)/C1=C\c1ccccc1,-7%,-20%
CC(=O)Oc1ccc(-c2cc3c(OC(C)=O)cc(OC(C)=O)cc3oc2=O)cc1,23%,-4%
COc1ccc(N2CC(C(=O)Nc3nnc(SCC(=O)Nc4ccc(NC(C)=O)cc4)s3)CC2=O)cc1 (stereo not given),-10%,16%
CCCCCCn1cc(CN2CC(N(C)CCC)CS2(=O)=O)nn1 (stereo not given),-10%,2%
CCCC(=O)N1CCC1(C)C(=O)Nc1ccc2scnc2c1 (stereo not given),1%,-12%
COc1cccc(S(=O)(=O)N(C)C[C@H]2OCc3cnnn3CCCC(=O)N([C@@H](C)CO)C[C@@H]2C)c1,-24%,6%
O=C1NCN(c2ccccc2)C12CCN(C(c1cccc3ccccc13)c1nnnn1C1CCCC1)CC2 (stereo not given),-4%,-2%
CCCCCCN1C[C@H](n2cc(COC(=O)c3ccccc3)nn2)[C@@H](O)C[C@@H]1c1ccc(OC)cc1,-18%,-4%
COc1cc(-c2coc3c(C(=O)NCc4ccc(C(F)(F)F)cc4)cccc23)ccc1O,-15%,9%
C=CCNc1ncnc2c1ncn2[C@H]1CN(Cc2cccc3ccccc23)C[C@@H](CO)O1,-19%,2%

# Next part:
SMILES,StopGo reporter,RE007 growth inh
O=C(NC1CC1)c1ccc2sc([C@@H]3O[C@H](CO)[C@H](O)[C@H](O)[C@H]3O)nc2c1,-14%,0%[18.4 µM]
C#Cc1ccc([C@@H]2C=C(C(=O)N3CCOCC3)O[C@H](OCc3ccc(CO)cc3)C2)cc1,5%,-4%
CSc1ccc(CN2CCC(C)(Oc3ccc(C(C)=O)cc3)C2)cc1 (stereo not given),?,-13%
O=C(CSc1nc2ccccc2c(=O)n1-c1ccccc1)Nc1ccc2c(c1)CCC2,-7%,6%[18.4 µM]
CCc1nc2c(OCc3ccc(C(F)(F)F)cc3)cccn2c1N(C)C(=O)c1ccc(OC)cc1,?,-9%
O=C(NCc1ccccc1)C(c1ccc(-c2ccccc2)cc1)N1CCN(CCN2CCOCC2)CC1 (stereo not given),-7%,-8%
O=C(NCCC(F)(F)F)C1Cc2c(-c3ccc(Cl)cc3)ccnc2O1 (stereo not given),-16%,-11%
CCOC(=O)[C@]12Cc3ccccc3[C@H]1N(Cc1ccccc1)C(=O)c1cc(OC)ccc12,?,12%
CC(=O)NC(c1cccc(F)c1)c1nc(-c2cc3ccccc3o2)cs1 (stereo not given),10%,10%[18.4 µM]
O=C(Nc1cccc(Oc2ccccc2)c1)C1Cc2c(-c3ccccc3)ccnc2O1 (stereo not given),0%,-26%[18.4 µM]
C[C@H](CO)N1C[C@H](C)[C@@H](CN(C)Cc2ccc(C(F)(F)F)cc2)OCc2cnnn2CCCC1=O,-11%,10%
CC(C)NC(=O)N(C)C[C@H]1OCc2cnnn2CCCC(=O)N([C@@H](C)CO)C[C@H]1C,-10%,0%
NC(=O)c1ncn([C@@H]2O[C@H](CNCc3ccccc3OCc3ccc(Cl)cc3Cl)[C@@H](O)[C@H]2O)n1,-22%,-10%
O=C(NCc1cccs1)c1csc([C@H]2C[C@H](O)[C@@H](CO)O2)n1,0%,7%[18.4 µM]
Cc1[nH]c2ccccc2c1C(=O)C(=O)NCc1nnnn1-c1ccc(F)cc1,-17%,3%
N#Cc1ccc(-c2nc3ccc(Cl)cn3c2Cc2cccc(F)c2)cc1,0%,3%
Cc1ccc(NC(=O)CSc2nnc3n2CCCCC3)cc1S(=O)(=O)N1CCOCC1,-1%,-4%

# High-throughput results from PubChem BioAssay.

# Not all compounds are listed. The share of hits here may be higher or lower than overall.
